# Assay outcomes deposited in PubChem BioAssay by Johns Hopkins Ion Channel Center.
# KCNQ2 pot = potentiators of rat KCNQ2 potassium channel; CHO-K1 KCNQ2, FluxOR thallium flux fluorescence; stronger effect = higher value; B-score at 10 µM; 310,000 compounds, 0.54% hits;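 active means fluorescence ratio B-score at least 3 SD of library B-scores, with initial fluorescence B-score within 3 SD, cut at about 5.3 in these data; same plate scores as AID 2156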;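 further: B-score of peak minus minimum over baseline fluorescence ratio after K+ and Tl+ stimulus; positive B-score means potentiation of KCNQ2 with more thallium influx and brighter signal; only the inactives scoring about 0 or higher are listed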
# Target sequence (O88943 whole entry, looked up): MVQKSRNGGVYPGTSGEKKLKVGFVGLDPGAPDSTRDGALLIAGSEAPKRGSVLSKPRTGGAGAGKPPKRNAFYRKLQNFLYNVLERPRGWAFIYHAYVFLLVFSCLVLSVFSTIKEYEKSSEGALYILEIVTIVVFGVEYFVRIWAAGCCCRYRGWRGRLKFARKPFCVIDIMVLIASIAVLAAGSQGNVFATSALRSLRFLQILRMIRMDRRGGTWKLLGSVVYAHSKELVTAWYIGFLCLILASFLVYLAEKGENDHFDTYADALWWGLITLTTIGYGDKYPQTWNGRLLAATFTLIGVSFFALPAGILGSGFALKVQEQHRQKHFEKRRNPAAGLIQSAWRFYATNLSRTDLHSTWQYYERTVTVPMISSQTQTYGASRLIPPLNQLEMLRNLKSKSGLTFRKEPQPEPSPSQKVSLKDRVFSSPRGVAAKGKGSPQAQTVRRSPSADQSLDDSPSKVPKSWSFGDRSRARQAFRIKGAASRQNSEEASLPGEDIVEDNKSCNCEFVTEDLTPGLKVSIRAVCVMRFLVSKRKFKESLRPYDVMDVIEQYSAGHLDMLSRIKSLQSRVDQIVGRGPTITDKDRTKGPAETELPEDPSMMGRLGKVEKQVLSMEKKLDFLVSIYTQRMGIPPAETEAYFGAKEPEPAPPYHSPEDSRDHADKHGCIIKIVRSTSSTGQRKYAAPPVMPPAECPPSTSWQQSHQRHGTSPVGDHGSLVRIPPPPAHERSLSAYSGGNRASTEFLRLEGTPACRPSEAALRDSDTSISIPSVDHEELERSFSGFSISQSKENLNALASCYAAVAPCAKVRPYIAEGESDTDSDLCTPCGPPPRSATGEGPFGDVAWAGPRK
# KCNQ2 pot baseline = also measured in KCNQ2 pot; calls as there; B-score; compound at 10 µM; measured here: initial fluorescence intensity artifact check;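 brightness before thallium and not channel activity; 0 = typical well and far values either way flag optical interference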
# * = called active by the depositor; . = no result given.
SMILES,KCNQ2 pot,KCNQ2 pot baseline
O=c1[nH]c(CSc2nc(-c3ccccc3)cs2)nc2ccccc12,0.45,-0.7
CN(C)CC(=O)Nc1ccc(S(N)(=O)=O)cc1,2,0.35
O=c1[nH]c(CSc2nnc(-c3ccccc3)n2C2CCCCC2)nc2ccccc12,0.75,-0.12
CC(C)(C)c1ccc(C(=O)NCC(=O)N2CCCCCC2)cc1,0.12,-1.4
CC(C)(C)c1ccccc1OCC(=O)NCCC(=O)O,0.96,0.14
Cc1cccc(N=Nc2ccc(O)c3ncccc23)c1,6.9*,0.62*
COc1ccc(OC)c(Nc2nc(-c3sc(NC(=O)C(C)(C)C)nc3C)cs2)c1,0.08,1.3
Cc1ccc(S(=O)(=O)Nc2c(C)n(C)n(-c3ccccc3)c2=O)cc1,0.92,.
Cc1nnc(SCC(=O)N2CCOCC2)[nH]c1=O,0.07,-0.18
Cn1nnnc1SCc1ccccc1[N+](=O)[O-],1.6,0.74
CCOC(=O)CN(C(=O)Cn1nnc(-c2ccc(OC)cc2)n1)C(C(=O)NC1CCCC1)c1ccc(F)cc1 (centres undefined),1.3,-0.9
N#C/C(=C\c1cn(-c2ccccc2)nc1-c1cc2ccccc2o1)c1nc2ccccc2[nH]1,0.82,0.62
COc1ccc(-c2csc(CCN3N=C(C)CC3=O)n2)cc1,0.38,0.06
Cc1cc(Oc2ccc(=O)n(C)n2)nc(Oc2ccc(=O)[nH]n2)n1,1,0.07
COc1cc(C(=O)NNC(=S)NC(=O)c2ccc(Cl)cc2)cc(OC)c1OC,0.34,0.08

# 4 of the compounds above, field by field.
COc1ccc(-c2csc(CCN3N=C(C)CC3=O)n2)cc1
  KCNQ2 pot = 0.38
  KCNQ2 pot baseline = 0.06
Cc1cc(Oc2ccc(=O)n(C)n2)nc(Oc2ccc(=O)[nH]n2)n1
  KCNQ2 pot = 1
  KCNQ2 pot baseline = 0.07
Cn1nnnc1SCc1ccccc1[N+](=O)[O-]
  KCNQ2 pot = 1.6
  KCNQ2 pot baseline = 0.74
COc1ccc(OC)c(Nc2nc(-c3sc(NC(=O)C(C)(C)C)nc3C)cs2)c1
  KCNQ2 pot = 0.08
  KCNQ2 pot baseline = 1.3

# Following part.
SMILES,KCNQ2 pot,KCNQ2 pot baseline
C=CCNC(=O)c1onc(CSc2cccc(Cl)c2)c1C(=O)O,1.1,1.7
CCc1ccc(NC(=O)CN(c2ccc(OC)cc2)S(=O)(=O)c2c(C)[nH]c(=O)[nH]c2=O)cc1,0.03,0.83
C=CCn1c(=O)c2c3c(sc2n2c(Nc4ccc(C(=O)OCC)cc4)nnc12)CCCC3,1.1,-0.72
CN(C)c1ccc(/C=N/NC(=O)CCCO)cc1,0.21,-1.4
CC(C)COP(=O)(c1ccc(N(C)C)cc1)C(O)c1ccncc1 (centres undefined),0.95,-0.12
CCC(Sc1ccc2nnc(-c3cccnc3)n2n1)C(=O)OC (centres undefined),0.89,0.12
CCOc1ccccc1NC(=O)NNC(=O)COc1cccc(C)c1C,0.52,0.67
COc1cccc(NS(=O)(=O)c2ccc3c(c2)CCN3C(C)=O)c1,0.14,-0.54
O=S(=O)(NCCc1ccccc1)c1ccc(F)cc1,0.63,0.73
COc1ccccc1NC(=O)c1nn(-c2ccc(F)c(F)c2)ccc1=O,0.42,0.57
CCn1cc(Cl)c(C(=O)NNC(=O)CCn2nc(C)c([N+](=O)[O-])c2C)n1,0.73,0.62
N#CCCN(CCC#N)C(=O)COc1ccc(Cl)cc1Cl,0.51,0.02
Cc1onc(-c2ccccc2)c1C(=O)NNC(=S)NC(=O)c1ccc2c(c1)OCO2,0.01,0.31
CCN1CNC(=S)N(c2cccc(C)c2)C1,1.9,-0.05
CCN(C(=O)CC(C)C)c1nnc(Cn2nnc3ccccc32)s1,0.11,0.96
O=C(COC(=O)C1CCN(c2ccc(C(F)(F)F)cn2)CC1)Nc1ccc(F)cc1[N+](=O)[O-],0.46,2.7
CCOc1ccc(S(=O)(=O)N(C)CC(=O)NC2CC2)cc1,1.4,0.89
O=C1OC(/C(=C\Nc2ccc(F)cc2F)[N+](=O)[O-])c2ccccc21 (centres undefined),1.6,-0.81
COC(=O)CSc1nnc(-c2ccc(OC)c(OC)c2)o1,0.65,2
C/C(N)=C(\C#N)C(=O)NCCc1ccccn1,2.1,-0.52
COc1ccccc1CNC(=O)C1CCN(S(=O)(=O)c2ccc3c(c2)OCCO3)CC1,0.4,-0.24
CC(=O)Nc1cc(NC(C)=O)cc(C(=O)OCC(=O)N2CC(C)OC(C)C2)c1 (centres undefined),0.54,-0.04
O=C(c1cccc(Br)c1)N1CCN(c2ccccn2)CC1,0.02,0.27
COc1ccccc1N1CCN(C(=O)c2cc(-c3ccc(Cl)c(Cl)c3)on2)CC1,0.51,-0.08
N#CCc1ccc(NS(=O)(=O)c2ccc(C3CCCCC3)cc2)cc1,1.5,-0.29
Cc1ccc(CSCC(=O)Nc2ccccc2C(=O)O)cc1,0.48,1.2
CC(=O)Nc1ccc2c(c1)nc(CCN1CCC(C)CC1)n2C,0.41,0.25
COc1ccc(CCNC(=O)Cc2ccc(NC3=NC4CS(=O)(=O)CC4S3)cc2)c(OC)c1 (centres undefined),0.67,0.68
COC(=O)CNC(=O)c1ccc2c(c1)S(=O)(=O)c1ccccc1C2=O,0.51,-0.16
CCCN(CCC)CC(O)CN1C(=O)NC(C)(C)C1=O (centres undefined),0.34,-0.77
CCc1ccc(-c2cc(C(=O)N/N=C/c3c[nH]c4ccccc34)[nH]n2)cc1,1.7,-2.5
CCn1c2ccccc2c2cc(NC(=O)COC(=O)c3cccc(S(=O)(=O)NC)c3)ccc21,1.5,-0.01
COc1ccc(S(=O)(=O)N2CCCC(C(=O)NCc3cccnc3)C2)cc1 (centres undefined),2,-0.52
Cc1ccc(Cl)cc1N1CCN(C(=O)c2ccc3nc[nH]c3c2)CC1,1.8,-1.5
CCOCCCNC(=S)Nc1cc(C)cc(C)c1,0.41,-0.28
CC(=O)OCC1=C(C(=O)O)N2C(=O)C(NC(=O)CCn3nc(C)c(Cl)c3C)C2SC1 (centres undefined),0.2,-0.65
N#Cc1ccc(C(=O)OCC(=O)N2CCOCC2)cc1,1,-0.13
N/C(=N\OC(=O)Cc1cccs1)c1ccccc1,0.72,0.19
O=C(NNC(=O)c1ccco1)c1cccc(Br)c1,1.6,0.32
Cc1nc(NS(=O)(=O)c2ccccc2)sc1C(=O)NN,0.16,0.4
COc1ccc(C(=O)NCCCNC(=O)c2ccc(C)nc2)cc1,0.38,0.1
COc1ccc(OC)c(S(=O)(=O)N2CCc3ccccc32)c1,0.62,-0.62
O=C(NCCS(=O)(=O)N1CCN(Cc2ccccc2)CC1)c1ccc(F)cc1,0.82,-0.04
COc1ccc2c(CC(=O)Nc3nccs3)coc2c1,0.66,0.04
C#C[C@]1(O)CC[C@H]2[C@@H]3CCc4cc(O)ccc4[C@H]3CC[C@@]21C,0.65,0.96

# Fetched by structure from the list above:
SMILES,KCNQ2 pot,KCNQ2 pot baseline
C#C[C@]1(O)CC[C@H]2[C@@H]3CCc4cc(O)ccc4[C@H]3CC[C@@]21C,0.65,0.96
CCOCCCNC(=S)Nc1cc(C)cc(C)c1,0.41,-0.28

# (list continues)
SMILES,KCNQ2 pot,KCNQ2 pot baseline
Cc1cccc(C(=O)NC2CCN(C(=S)NCc3ccco3)CC2)c1,0.71,0.18
CSc1ccccc1NC(=O)CN(C)C(=O)C1CCN(C(=O)Nc2ccccc2)CC1,0.93,0.04
COc1ccc(C(=O)N2CCOC2CNC(=O)C(=O)NCc2ccc3c(c2)OCO3)cc1 (centres undefined),0.03,0.08
CCc1nc2nc(C)c(NS(=O)(=O)c3ccc(C4CCCCC4)cc3)c(=O)n2[nH]1,0.81,-3
CCOC(=O)c1c(N)sc2c1CCCC2,1.1,1.1
Cc1nn(CC#N)c(=O)n1-c1ccccc1,0.04,-0.05
C=CCn1c(SCC(=O)NC2CCCCC2)nnc1C1CCCCC1,2.2,-0.69
Cc1cc(-c2nn(C)c(=O)c3ccccc23)cc(C)c1O,1.3,1.6
CC(=O)N1Cc2ccccc2CC1C(=O)N1CCN(c2ccccc2)CC1 (centres undefined),2.6,-0.12
Oc1ccc(/C=N/NC(=S)Nc2cccnc2)cc1,0.04,-1.1
Fc1ccc(C2=CC(c3ccco3)n3nnnc3N2)cc1 (centres undefined),0.94,-0.02
O=C(O)c1cc(S(=O)(=O)N2CCCCCC2)c(Cl)cc1Cl,0.17,-1.1
COc1ccc(OC)c(NC(=O)CSc2nnnn2C)c1,1.4,-0.26
Cc1ccc(NC(=O)CN(C)C(=O)Cn2cc(C(F)(F)F)cc(Cl)c2=O)cc1,0.21,0.16
COc1ccc(C2C(=O)c3ccccc3C2=Nc2ccc(Br)cc2)cc1 (centres undefined),0.6,-0.42

# Entries of single compounds as entered above. Order of values: KCNQ2 pot, KCNQ2 pot baseline
# Cc1nn(CC#N)c(=O)n1-c1ccccc1 as listed: 0.04, -0.05
# Cc1cc(-c2nn(C)c(=O)c3ccccc23)cc(C)c1O as listed: 1.3, 1.6

# The results go on.
SMILES,KCNQ2 pot,KCNQ2 pot baseline
Cc1nnc(-c2cnn(C)c2N)n1Cc1ccc(Cl)cc1,0.71,-1.3
COc1ccc(OC)c(NC(=O)CC2(CC(=O)O)CCCC2)c1,1.1,-1.3
CCCCn1c(N)c(N(CC(C)C)C(=O)c2oc3ccc(OCC)cc3c2C)c(=O)[nH]c1=O,1.5,-0.27
Cn1c(CC(=O)Nc2cccc(Cl)c2Cl)nnc1SCC(=O)NC1=NCCS1,0.88,1
COc1c(C)cc(C(=O)C2CCCN(C(=O)c3csc(C)n3)C2)cc1C (centres undefined),1,0.5
COC(=O)CC1C(=O)NCCN1C(=O)c1ccc2oc(C(C)C)nc2c1 (centres undefined),0.24,0.92
O=C(C(=O)N1CCCCC1)c1cn(CC(=O)N2CCCCCC2)c2ccccc12,0.16,-2.1
CCc1ccccc1NC(=O)c1ccc(Cn2cc([N+](=O)[O-])cn2)cc1,1.6,-1.2
COC(=O)COc1ccc(Cl)cc1C1Nc2ccccc2C(=O)N1c1ccc(OC)cc1 (centres undefined),0.97,0.18
CCN(CC)S(=O)(=O)c1ccc(C(=O)NC(=S)N(CCO)Cc2ccccc2)cc1,1.4,-0.91
CC(CCc1ccco1)NC(=O)Nc1cccc(F)c1 (centres undefined),4.8,0.15
O=C(Nc1cccc2ncccc12)c1ccc(OCc2ccccc2)cc1,0.64,-0.6
Cc1cc(C)cc(C(=O)N(c2ccccn2)C(C)c2ccco2)c1 (centres undefined),0.67,-0.26
CCCOc1ccc(/C=C/C(=O)NC2CCCCC2)cc1OC,0.39,0.26
CC(C)COc1ccc(C(=O)Nc2ccc([N+](=O)[O-])cc2)cc1,2.3,1.4
CS(=O)(=O)c1ccc2c(c1)SC1=NC(=O)/C(=C/c3ccco3)C(=N)N12,1.3,1.9
Cc1cc(=O)[nH]c(SCC(=O)N2CCCCCC2)n1,0.87,-0.34
CC(=O)c1cccc(NC(=O)c2cnccn2)c1,0.82,0.49
COc1ccccc1NC(=O)c1ccc(NC(=O)COC(=O)C2CCCCC2)cc1,2,-0.09
O=C(N/C(=C\c1ccccc1)C(=O)N1CCOCC1)c1cccc(Br)c1,1.2,-3.6
CCC(Oc1ccccc1C)C(=O)N1CCCN(C)CC1 (centres undefined),1.2,1.1
CCc1nnc(NC(=O)CN2CCOCC2)s1,0.7,-0.36
O=C(NC1CCCCC1NC(=O)c1ccco1)c1ccco1 (centres undefined),1.2,0.1
Cc1ccc(CN2CCCN(C)CC2)c(C)c1,0.72,-2
Cc1cc(N2CCN(C)CC2)nc2ccc(NC(=S)NC3CC3)cc12,1.1,0.53
Cc1nc2c(C)[n+](CC(=O)c3ccccc3)ccc2n1C,0.74,3.3
CCOc1ccc(-c2nc(N)ncc2-c2ccccc2OC)c(O)c1,0.74,0.18
Cc1cc(NC(=O)c2ccccc2-c2ccccc2C(=O)O)no1,0.95,0.9
O=C(Nc1cccc(C(=O)O)c1)/C(=C\c1ccc(F)cc1)NC(=O)c1ccco1,1.7,0.47
O=C(Cn1cnc2ccccc21)Nc1ccc(F)c(F)c1,0.27,0.03
Cc1ccccc1-n1nnnc1SCc1cc(=O)n2ccsc2n1,2.8,1.8
CCOC(=O)C(c1ccccc1)N1CCN(c2ccc(OC)cc2)CC1 (centres undefined),0.07,0.09
Cc1cc(C(=O)N2CCN(c3ccc([N+](=O)[O-])cc3)CC2)co1,0.03,1.9
Cc1[nH]n(C(N)=S)c(=O)c1N=Nc1cc(C(F)(F)F)ccc1Cl,0.26,0.37
CN(C)C(=O)c1ccc(-c2cc(C(F)(F)F)n(C)n2)s1,0.87,0.54
CCOC(=O)Cc1csc(NC(=O)c2cnc3sc(C)cn3c2=O)n1,0.97,-0.57
Cn1c(=O)c2c(nc(N3CCCCC3)n2CC(O)COc2ccccc2)n(C)c1=O (centres undefined),1.7,-1.8
COc1cc(NC(=O)CN(c2ccc(C)cc2)S(=O)(=O)c2c(C)n[nH]c2C)cc(OC)c1,3,-2.7
COc1ccccc1NC(=O)Cn1c(=O)n(-c2ccccc2)c(=O)c2oc3ccccc3c21,0.03,0.28
CC(=O)Nc1ccc(Oc2nc(-c3ccccn3)nc3ccccc23)cc1,0.39,-0.48
O=C1Nc2cc(C(=O)NCCCN3CCOCC3)ccc2S/C1=C/c1ccccc1F,0.38,-1.1
O=C(Cc1cccs1)Nc1ccc(N2CCOCC2)cc1,1.7,-0.38
COc1ccc(NC(=S)N/N=C/c2cccn2Cc2ccc(F)cc2)cc1,1.4,1.1
CN(C)S(=O)(=O)c1cccc(NC(=O)COc2nc3ccccc3nc2N2CCOCC2)c1,0.94,-1.1
Cc1ccc(NC(=O)c2ccco2)c(NC(=O)COc2ccccc2)c1,0.65,0.29

# This is a subset; rates above refer to the full screens.
